# Source: PubChem
# Ecoli growth = inhibitors of Escherichia coli growth; OD600, 23 h; active compounds read low; OD600 absorbance (concentration not given with the values); 330,000 tested, 0.21% active;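 active means OD600 absorbance below the run mean of sample wells minus 3.6 SD, in any replicate, cut at about 0.56 in these data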;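 further: stock transfer was 300 nL into about 60 µL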
# ALR H2O2 inh = inhibitors of human sulfhydryl oxidase ALR; AID 485317; inhibition, % (test concentration not listed); 290,000 tested, 3.8% active; P55789; purified ALR, DTT oxidation, H2O2 HRP-luminol luminescence;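 active means mean and each replicate at 75% or more; inconclusive means only one of the two met; inactive means neither met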;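 further: stock transfer was 7.5 nL into about 7.5 µL; 0% = neutral wells and 100% = wells with inactivated enzyme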
# Target sequence (P55789 whole entry, looked up): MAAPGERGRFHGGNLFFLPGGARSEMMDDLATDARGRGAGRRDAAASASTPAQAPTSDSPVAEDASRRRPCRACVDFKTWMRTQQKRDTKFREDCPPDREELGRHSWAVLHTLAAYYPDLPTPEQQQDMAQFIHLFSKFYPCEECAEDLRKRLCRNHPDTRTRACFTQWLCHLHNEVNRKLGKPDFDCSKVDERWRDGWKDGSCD
# Vif TR-FRET = inhibitors of Vif binding to APOBEC3G peptide, primary screen, biochemical, TR-FRET, GST-Vif 1-94, biotin-A3G peptide, dose response retest (AID 1117319); TR-FRET GST-Vif / biotin-A3G peptide binding; higher % means a stronger effect; test concentration not given here; strong numbers were not always called active; inhibition, %; hits with a dose series show IC50 in µM; 260,000 tested, 0.57% active;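 active means above the screen mean plus three standard deviations and confirmed in dose response; inconclusive means results disagree or hit not tested in dose response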;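 further: Vif residues 1-94 fused to GST binding biotinylated APOBEC3G peptide 110-148; 0% = full assay without inhibitor and 100% = GST in place of GST-Vif; retest series ran down from 100 µM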
# MLL AF4-AF9 inh = blocks AF4 peptide binding to human AF9; P42568; inhibition, % at 10 µM; AlphaScreen, biotin-AF4 peptide binding to FLAG-AF9; AID 651704; 350,000 tested, 0.47% active;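 active means every replicate reaching a set inhibition limit, whatever the replicate mean, cut at about 25% in these data; inconclusive means mean inhibition reaches that limit but some replicates miss it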;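 further: 0% = plate neutral control median and 100% = total signal loss; the record names both 10 and 1 µM as test concentration; the first replicate is given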
# Target sequence (P42568 whole entry, looked up): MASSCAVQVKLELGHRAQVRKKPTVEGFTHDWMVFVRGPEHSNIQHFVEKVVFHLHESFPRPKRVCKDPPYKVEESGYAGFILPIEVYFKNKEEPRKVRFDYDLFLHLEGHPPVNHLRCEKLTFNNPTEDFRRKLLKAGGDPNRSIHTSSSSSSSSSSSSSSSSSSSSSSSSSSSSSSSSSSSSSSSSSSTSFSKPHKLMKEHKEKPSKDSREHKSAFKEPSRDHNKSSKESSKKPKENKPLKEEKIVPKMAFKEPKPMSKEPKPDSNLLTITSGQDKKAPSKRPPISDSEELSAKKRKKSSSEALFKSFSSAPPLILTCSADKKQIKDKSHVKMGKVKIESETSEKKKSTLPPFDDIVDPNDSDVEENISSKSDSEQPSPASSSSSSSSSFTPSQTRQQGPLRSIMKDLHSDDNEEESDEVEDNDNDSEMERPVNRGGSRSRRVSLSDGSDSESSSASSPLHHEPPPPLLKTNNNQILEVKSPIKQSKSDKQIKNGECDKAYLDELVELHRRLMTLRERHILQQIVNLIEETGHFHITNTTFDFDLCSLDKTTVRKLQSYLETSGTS
# Ecoli rRNA inh = inhibits bacterial ribosomal RNA function over humanized ribosomes. E. coli WT GFP vs humanized-ribosome RFP mutants, fluorescence, 24 h; active compounds read low; DMSO median 0, no signal -100. 350,000 tested, 1.6% active. GFP signal change (wild-type ribosome), % (test concentration not listed). AID 720706;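 active means significant combined selectivity score with lowered wild-type GFP, culture density cut under 30%, mutant RFP and density less affected; inactive means any of these conditions unmet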; further: one replicate is shown; some compounds called inactive have numbers as strong as hits
# HNF4A DNA FP = change in binding of human HNF4 alpha to DNA; P41235; HNF4a-FITC DNA binding, fluorescence polarization, 1 h; activity change, % at 10 µM; 360,000 tested, 0.3% active; AID 1224865; in the data active means activity change above about 30%, passing the limit was not always enough;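 further: controls were the assay level and a saturating level of protein; the project sought stronger binding though the title names inhibitors; some compounds called inactive have numbers as strong as hits; positive values seem to mean higher polarization but the record does not say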
# FGF22 binding = shifts melting point of recombinant human FGF22. Q9HCT0. recombinant FGF22 thermal shift, SYPRO orange fluorescence; percent of sucrose octasulfate shift, DMSO zero. calls only at 9.99 µM. 340,000 tested, 1.5% active;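 active means melting point raised past a set limit in the mean and every replicate; inconclusive means no clear call; three in four hits are not shown here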
# Target sequence (Q9HCT0 whole entry, looked up): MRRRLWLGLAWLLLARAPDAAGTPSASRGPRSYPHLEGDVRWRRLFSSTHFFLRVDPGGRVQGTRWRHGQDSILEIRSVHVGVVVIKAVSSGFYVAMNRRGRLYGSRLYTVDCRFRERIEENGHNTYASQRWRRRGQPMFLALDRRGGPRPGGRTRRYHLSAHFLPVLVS
# Ecoli rRNA inh OD600 = second read-out of Ecoli rRNA inh, no call of its own (marks repeat the call); OD600 change, %; measured here: OD600 growth;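 optical density of the mix in the first replicate; 0 = DMSO median and -100 = no signal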
# Ecoli rRNA inh RFP = also measured in Ecoli rRNA inh; calls as there; RFP signal change, %; measured here: RFP humanized mutant strains;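 first replicate; 0 = DMSO median and -100 = no signal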
# * hit, by the source's call; i = inactive; ? = inconclusive; . = not tested or not shown; + = active, no number; & = joins results of further samples. Some of the compounds tested; count on the stated rates, not on these rows.
no.	SMILES	Vif TR-FRET	FGF22 binding	Ecoli rRNA inh RFP	ALR H2O2 inh	MLL AF4-AF9 inh	Ecoli rRNA inh OD600	Ecoli growth	HNF4A DNA FP	Ecoli rRNA inh
1	C=CCOc1c2ccc(C(=O)NCc3ccc(OC)cc3)cc2nn1C	10%	i	0.1	5	-1.0	6	0.7	0.3	15
2	Cc1cccc(-n2ncc3c2CCCC3NC(=O)CN2CCOC2=O)c1C (centres undefined)	.	i	1.0	1	-3.8	5	0.67	-0.8	11
3	CCOc1cc2c(cc1C(C)(C)C)NC(=O)CS2	3%	.	.	-3	.	.	0.69	0.2	.
4	N#Cc1c(-c2ccc(Cl)cc2Cl)nc2n(c1=O)CCS2	-3%	.	.	.	.	.	0.74	1.3	.
5	O=C(C[C@@H]1C=C[C@@H](NC(=O)c2ccc3c(c2)OCO3)[C@@H](CO)O1)NCc1ccc(Cl)cc1	.	i	-2.3	.	0.6	-6	.	.	-5
6	CN(C)C(=O)c1ccc(-c2nnc(OCc3nc4ccccc4n3C)c3ccccc23)cc1	.	i	-2.5	.	-2.5	1	0.72	6.7	9
7	CCOC(=O)c1sc(N(C)C(C)=O)nc1C	4%	.	.	.	.	.	0.71	2.5	.
8	C/C(=N\NC(N)=S)c1cccnc1	2%	i	-3.2	0	.	18	.	4.4	10
9	COC(=O)CN1C(=O)[C@H]2[C@@H](c3ccc(C)o3)N3C(=O)CN(CC4CC4)C(=O)[C@@]3(Cc3ccccc3)[C@H]2C1=O	.	i	-8.0	-7	0.6	15	.	2.4	5
10	COc1ccc(OC)c(C(=O)c2coc3ccc(O)c(CN4CCOCC4)c23)c1	4%	.	.	.	.	.	0.74	-2.1	.
11	COc1ccc(NC(=O)CCSc2cc(C)c3ccccc3n2)cc1	-60%	.	.	-2	.	.	0.8	-0.6	.
12	CCC(=O)N1C[C@H](C)[C@H](OC)CN(C)C(=O)c2cc(NC(=O)c3ccccc3)ccc2OC[C@H]1C	.	i	-0.3	.	3.9	4	.	.	-1
13	O=C(NCc1ccccc1Cl)[C@H]1[C@H](CO)[C@H]2Cn3c(cccc3=O)[C@H]2N1C(=O)C1CCC1	.	i	1.3	.	-2.5	4	.	.	0
14	Cc1cc(C=O)c(C)n1-c1cc(C(=O)O)cc(C(=O)O)c1	1%	i	7.5	-6	-10.0	23	0.68	-25	17
15	Cc1nn(-c2ccccc2)c(Cl)c1/C=N/NC(=O)c1[nH]ncc1Br	.	i	3.5	0	-2.9	0	.	7.2	-8
16	CCCC#Cc1ccc([C@@H]2[C@@H](C#N)N(C(=O)C3CCCCC3)[C@H]2CO)cc1	.	i	2.0	.	-1.5	-32	.	.	-17
17	COCCNC(=O)CN1C(=O)NC2(CCCCCC2)C1=O	.	i	-0.5	5	-3.9	7	0.68	2.0	15
18	OC1(c2ccc(OC(F)F)cc2)CSC(=Nc2cccnc2)N1Cc1ccco1 (centres undefined)	.	i	-30	.	7.0	-76	0.66	-0.7	-55
19	CCCNC(=O)N(C)C[C@@H]1Oc2ncc(-c3ccc(OC)cc3)cc2C(=O)N([C@@H](C)CO)C[C@H]1C	.	i	0.2	.	-0.4	2	.	.	-2
20	COc1ccccc1Cc1c(-c2ccc(Cl)cc2)nc2ccc(Cl)cn12	.	i	2.3	.	0.3	-32	.	18	-5
21	O=C(Nc1ccc(S(=O)(=O)N2CCc3ccccc3C2)cc1)c1ccccc1	-5%	.	.	-14	.	.	0.69	2.2	.
22	COc1ccccc1NC(=S)NCC1CCCCC1	7%	i	2.3	-6	0.3	-8	0.71	1.4	-2
23	COC(=O)Cc1[nH]n(-c2nc3ccccc3s2)c(=O)c1C(C)=Nc1ccc(Cl)cc1	6%	i	3.4	60	-31	-11	0.67	1.5	-4
24	Cc1ccc(CNC(=O)C2CCCN(S(=O)(=O)c3cnc[nH]3)C2)cc1 (centres undefined)	68%	i	-0.1	16	-4.9	8	0.74	1.7	8
25	C/C=C/c1ccc([C@H]2[C@@H](C#N)N(C(=O)CN3CCOCC3)[C@@H]2CO)cc1	.	i	-2.5	.	0.5	4	.	.	3
26	Cc1ccc2c(c1)NC(=O)C(CC(=O)NCCCN1CCN(c3cc(Cl)ccc3C)CC1)O2 (centres undefined)	-8%&9%	i	-11	-14	0.1	-47	0.73	2.7	-35
27	COCC(=O)N1[C@H](CO)[C@H](c2ccccc2-c2cccc(OC)c2)[C@@H]1C#N	.	i	-2.5	.	-0.1	12	.	.	-2
28	Cc1cc(C)nc(NC(=O)c2ccc(Br)s2)n1	-6%	i	0.9	-5	-1.3	-3	0.66	-1.1	-5
29	Cc1ccc(CONC(=O)c2ccccc2)cc1	7%	i	-2.3	-3	-6.4	-1	0.67	-1.4	4
30	CCCC(=O)NC(Nc1ccc(S(=O)(=O)Nc2cc(C)on2)cc1)(C(=O)OCC)C(F)(F)F (centres undefined)	0%	.	.	-3	.	.	0.71	-2.3	.
31	O=C(C[C@H]1C=C[C@@H](NC(=O)C2CCC2)[C@@H](CO)O1)NCc1ccncc1	.	i	-0.6	.	-1.6	0	.	.	0
32	CCOC(=O)c1ccc(NC(=S)NCCCN2CCN(C3CCCCC3)CC2)cc1	-9%	i	-1.1	10	3.3	0	0.66	-0.8	2
33	N#CCC(=O)Nc1ccc(C(=O)NNC(=S)NC2CCCCC2)cc1	.	.	3.6	94*	4.3	12	0.65	-2.3	4
34	C[C@H]1CN([C@@H](C)CO)C(=O)c2cc(NC(=O)CCCCCC(=O)Nc3ccccc3N)ccc2O[C@@H]1CN(C)C(=O)Nc1ccc(C(F)(F)F)cc1	.	i	-2.9	.	-1.1	-3	.	.	-2
35	Cc1ccc2c(Cl)cc(Cl)c(OCC(=O)N(C(C)C)C(C)C)c2n1	8%	i	0.0	-7	-0.3	-4	0.7	1.4	-13
36	Cc1c(NC(=O)C(C)OC(=O)COc2ccccc2)c(=O)n(-c2ccccc2)n1C (centres undefined)	2%	i	-0.3	-1	-1.0	1	0.72	-3.7	14
37	O=C1c2ccccc2C(=O)N1n1c(=O)[nH]c2ccccc2c1=O	4%	.	.	-1	.	.	0.73	1.1	.
38	O=C(C1CC2C=CC1C2)N1CCN(c2ccccc2)CC1 (centres undefined)	15%	i	10	?	-1.2	20	0.7	1.9	3
39	C=CCNC(=S)NNC(=O)CC12CC3CC(CC(C3)C1)C2	0%	i	1.1	2	-5.6	5	0.69	5.6	4
40	O=C1CNC(=O)/C(=C/c2ccco2)N1	?	i	5.9	3	1.5	18	0.7	2.1	27
41	COc1ccc(F)cc1C(=O)C1CCCN(C(=O)c2ccc(C(C)=O)s2)C1 (centres undefined)	3%	i	-1.7	?	0.3	-9	0.67	0.6	-9
42	CCCCC1S/C(=N/N=C/c2ccc(OC)cc2)N(Cc2ccc(OC)cc2)C1=O (centres undefined)	-6%	.	.	-2	.	.	.	-5.5	.
43	COc1ccc(Nc2nc(N)nc(CSC(=S)N3CCN(c4ccccc4)CC3)n2)cc1	>100µM*	i	1.3	-6	7.0	-5	0.67	0.1	-1
44	O=C(C[C@H]1CC[C@H]2[C@@H](COC[C@@H](O)CN2C(=O)c2cccnc2)O1)Nc1ccc(-c2ccccc2)cc1	.	i	2.7	.	2.8	0	.	.	-2
45	CCCNC(=O)c1nc2ncc(Br)cn2n1	27%	.	.	-6	.	.	0.69	3.0	.
46	CCOC(=O)c1cccc(NC(=O)Cn2nc(C)n3cccc3c2=O)c1	1%	i	-1.0	-7	-8.3	-11	0.71	3.5	-17
47	Fc1cccc(CN2CCSCC2)c1	.	i	0.2	1	0.2	16	0.64	2.0	16
48	COC(=O)C1C(c2ccccc2)C(C(=O)N2CCN(C)CC2)C1c1ccccc1 (centres undefined)	0%	.	.	0	.	.	0.72	-0.4	.
49	COc1ccccc1-c1cccc([C@@H]2C[C@H]3[C@H](CON3C)CN2C)c1	-6%	i	4.0	.	1.6	5	.	3.4	6
50	C[C@H](CO)N1C[C@H](C)[C@@H](CN(C)C(=O)NC2CCCCC2)Oc2c(NS(=O)(=O)c3ccc(Cl)cc3)cccc2C1=O	.	i	1.9	.	-3.3	3	.	.	-2
51	O=C(O)c1cccc(C(=O)Nc2cccc(NC(=O)C3CCCO3)c2)c1 (centres undefined)	16%	.	.	-4	.	.	0.66	0.8	.
52	C=CCn1c(SCC(=O)NCc2ccco2)nc2ccccc2c1=O	8%	i	-3.0	3	-1.5	-11	0.68	2.5	3
53	COc1cccc(-c2cnc3c(NC(C)=O)cc(-c4cc(F)ccc4OC)cn23)c1	.	i	20	.	-0.5	2	.	2.5	6
54	CC(=O)Nc1nc(-c2ccc3c(c2)CCN3C(=O)C2CC2)c(C)s1	.	i	0.6	-31	-1.0	-10	0.62	2.5	-3
55	CCC(=O)N(C)C[C@@H]1Oc2cc(-c3cccc(F)c3)ccc2S(=O)(=O)N([C@@H](C)CO)C[C@@H]1C	.	i	0.7	.	-0.2	-13	.	.	-11
56	C[C@H](CO)N1C[C@H](C)[C@H](CN(C)CC2CCCC2)OCc2cnnn2CCCC1=O	.	i	0.2	.	-1.2	-2	.	.	-1
57	CC1CC(C)CN(C(CCc2ccccc2)C(=O)NC2CCCCC2)C1 (centres undefined)	.	i	-11	.	-1.0	3	.	-3.4	8
58	CO[C@@H](C(=O)N(C)C[C@@H]1OCc2ccccc2-c2ccccc2C(=O)N([C@@H](C)CO)C[C@@H]1C)c1ccccc1	.	i	-0.6	.	-2.9	1	.	.	1
59	COc1ccc(NS(=O)(=O)c2cc(N=Nc3c(O)[nH]c(=O)[nH]c3=O)ccc2Cl)cc1	39%	+	13	-2	-1.0	2	0.64	-3.6	5
60	CC(CN1CCOCC1)OC(=O)c1ccc(Cl)cc1Cl (centres undefined)	0%	i	-4.6	-9	1.2	-3	0.68	-1.8	-1

# Reformatted: entries from further up.
# Below each compound – Vif TR-FRET	FGF22 binding	Ecoli rRNA inh RFP	ALR H2O2 inh	MLL AF4-AF9 inh	Ecoli rRNA inh OD600	Ecoli growth	HNF4A DNA FP	Ecoli rRNA inh
[20] COc1ccccc1Cc1c(-c2ccc(Cl)cc2)nc2ccc(Cl)cn12
 : .	i	2.3	.	0.3	-32	.	18	-5
[44] O=C(C[C@H]1CC[C@H]2[C@@H](COC[C@@H](O)CN2C(=O)c2cccnc2)O1)Nc1ccc(-c2ccccc2)cc1
 : .	i	2.7	.	2.8	0	.	.	-2
[29] Cc1ccc(CONC(=O)c2ccccc2)cc1
 : 7%	i	-2.3	-3	-6.4	-1	0.67	-1.4	4
[26] Cc1ccc2c(c1)NC(=O)C(CC(=O)NCCCN1CCN(c3cc(Cl)ccc3C)CC1)O2 (centres undefined)
 : -8%&9%	i	-11	-14	0.1	-47	0.73	2.7	-35

# Continued.
no.	SMILES	Vif TR-FRET	FGF22 binding	Ecoli rRNA inh RFP	ALR H2O2 inh	MLL AF4-AF9 inh	Ecoli rRNA inh OD600	Ecoli growth	HNF4A DNA FP	Ecoli rRNA inh
61	CCC(COC(=O)c1ccccc1)Oc1cc(NCc2ccccc2)c2ncn(C(C)C)c2c1 (centres undefined)	.	.	.	-13	.	.	0.71	-1.6	.
62	Cn1ccc(=Nc2ccc(NC(=O)c3ccc(N=c4ccn(C)c5ccc([N+](=O)[O-])cc45)cc3)cc2)cc1	?	i	-20	-110	8.5	-78	0.1*	2.0	-55
63	CCc1ccc(/C=C2\Oc3ccc(C(=O)OC)cc3C2=O)cc1	7%	.	.	2	.	.	0.65	-3.4	.
64	CCCCOCCCNS(=O)(=O)c1ccccc1	1%	i	-0.6	6	6.4	1	0.66	-3.1	4
